Screens deposited in PubChem by ICCB-Longwood Screening Facility, Harvard Medical School.
Anaer choline gr – choline-fed anaerobic bacterial growth inhibition | 55,000 compounds, 0.2% hits | calls only | AID 1963822 | Gram-negative bacterium anaerobic choline minimal medium, absorbance growth; hits give low values; many inactives read as strong as hits in the columns shown;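 active = growth z-score on choline under -2 at 7 or 20 h with little or no fall on glycerol, limits in tiers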;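 also: stock transfer was 300 nL into about 50 µL; the organism is E. coli; final concentration not given here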
Anaer choline gr early – recorded beside Anaer choline gr, whose call it bears; z-score; measured here: choline growth z-score, timepoint 1;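 score of optical density at 7 h as mean of two plates; lower means less growth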
* = called active by the depositor; i = inactive; + = active, no number; & = joins results of further samples. These rows are one share of the data (hit frequency here may not be typical).

SMILES	Anaer choline gr	Anaer choline gr early
O=C(CSc1nc(-c2ccc3c(c2)OCO3)nc2cc(=O)[nH]n12)NCCCc1ccccc1	i	-0.88
CCn1c(CN(c2ccc(F)cc2)S(C)(=O)=O)nnc1SCC(=O)Nc1ccc(F)cc1F	+	-1.34*
O=C(NCCc1csc(-c2ccc(Cl)cc2)n1)C1CCCC1	i	0.88
Cc1cc(OC(C)C(=O)Nc2ccc3c(c2)NC(=O)CO3)ccc1Cl (stereo not given)	i	0.54
Cn1c(O)c(-c2cc(-c3ccc(O)cc3)n3ncnc3n2)c(=O)n(C)c1=O	i	0.28
COc1cccc(NC(=O)CCc2nc3c(C)nn(-c4ccc(C)cc4)c3n(C)c2=O)c1	i	0.14
CCc1c(C)nc2ncnn2c1Nc1ccc(F)cc1C	i	-1.27
CNC(=O)N1c2ccccc2NC2=C(C(=O)CC(C)(C)C2)C1c1ccccc1OC (stereo not given)	i	0.46
COc1cc(OC)c(NC(=O)c2ccc(-n3nnc4cccnc43)cc2)cc1Cl	i	0.08
COc1ccc2c(c1)NC1(CCN(C(=O)NC3CCCC3)CC1)c1cccn1-2	i	-0.11
Cc1oc2ncnc(N3CCC(C(=O)Nc4cccc(Cl)c4)CC3)c2c1C	i	0.28
CC1=C(c2ccc(C)c(C)c2)S(=O)(=O)N(Cc2ccc(C(=O)NCc3ccc(F)cc3)cc2)C1=O	i	1.12
CCc1cccc(Nc2cc(C(=O)O)nc3ccc(C)cc23)c1	i	1.5
COc1ccc(OC)c(C2CC(=O)Nc3c2cnn3-c2nc3ccccc3s2)c1 (stereo not given)	i	-0.3
Cc1ccc(-c2nnc(-c3nc(N4CCc5ccccc54)c4ccccc4n3)o2)cc1	i	1.03
NS(=O)(=O)c1ccc(CCN[C@H]2CS(=O)(=O)C[C@@H]2S(=O)(=O)c2ccc(F)cc2)cc1	i	0.35
CCCn1c(=O)c2ccc(C(=O)NC(C)C)cc2n2c(SCc3cccc(F)c3)nnc12	i	-0.42
CCOC(=O)c1c(S(=O)(=O)N2CCCC(C(=O)NCc3nc4ccc(C)cc4[nH]3)C2)c(C)n(C)c1C (stereo not given)	i	-0.05
COCCNC(=O)CSc1nc(-c2ccc(C)cc2)[nH]c1-c1ccccc1	i	0.97
CC(C)c1ccc(NC(=O)Cn2nc3c4sccc4ncn3c2=O)cc1	i	-0.18
O=NN(CCCl)C(=O)NC1CCCCC1	i	-0.66
CCCn1c(=O)c2sc(N3CCCC3)nc2n(CC(=O)NCCC2=CCCCC2)c1=O	i	-0.57
Cn1nc(C(=O)NCc2ccccc2)c2c1CCN(C(=O)c1ccc(Cl)cc1)C2	i	-0.48
Cc1nn(C)c(C)c1S(=O)(=O)N1CCN(C(=O)C2CCC2)CC1	i	-0.21
O=C(Nc1cccc2nsnc12)c1cc2cc(Cl)ccc2[nH]1	i	-1.02
O=C(Nc1ccccc1)c1nnc(CSCC(=O)N2CCN(c3ccccn3)CC2)s1	i	0.38
Cc1cccc(-c2nccc(Nc3cccc(C(=O)NC(C)C)c3)n2)c1	i	-1.56
Cc1nn(-c2ccccc2)cc1-c1noc(C(=O)NCc2ccccc2Cl)n1	i	2.66
Cc1ccccc1-c1ncccc1C(=O)N1CCC(C(=O)NC2CCN(Cc3ccccc3)CC2)CC1	i	0.25
COc1ccc(NC(=O)c2cnn(-c3ccc(Br)cc3)c2)cc1Cl	i	-0.45
O=S(=O)(c1ccc(F)cc1F)N1CCN(c2ncnc3c2nnn3-c2ccccc2)CC1	i	-0.7
O=C(c1cc(-c2ccccn2)n[nH]1)N1CCN(C(=O)C2CCCCC2)CC1	i	-0.16
COc1ccc(-n2nc(C(=O)Nc3ccc(F)cc3)c(=O)n(C)c2=O)cc1	i	0.68
Fc1ccc(OCc2nnc3sc(-c4ccccc4F)nn23)cc1	i	-0.1
O=C(CCc1nc(CSc2nnc(-c3ccccc3)o2)no1)Nc1ccc(Cl)cc1	i	1.71
COc1ccc(Cn2c(SCc3ccc(C(=O)NCCc4cnc[nH]4)cc3)nc3cccnc32)cc1	i	0.01
COc1cc(Nc2ncc3c(n2)CCN(S(=O)(=O)c2ccc(F)cc2)C3)cc(OC)c1	i	0.86
Cc1ccc(-c2nnc3ccccc3c2C(=O)N(C)C2CCCCC2)cc1	i	0.46
CCOC(=O)c1c(C)[nH]c(C(=O)N2CCC(CC(=O)NCc3ccc(CC)cc3)CC2)c1C	i	0.33
COc1ccccc1N1CCN(c2nc(C)c(CCC(C)C)c(=O)[nH]2)CC1	i	-0.31
C[C@]12CCC(=O)C=C1CC[C@@H]1[C@@H]2C(=O)C[C@@]2(C)[C@H]1CC[C@]2(O)C(=O)CO	i	-0.02&-0.37
O=C(CC1CCN(C(=O)c2cn(-c3ccccc3)nc2-c2ccccc2)CC1)N1CCCCC1	i	0.28
COc1ccc(-c2nc3nc(CN4CCCC4)cc(=O)n3[nH]2)cc1	i	-0.31
CC(=O)[C@@]1(O)CCC2C3CCC4=CC(=O)CC[C@]4(C)C3CC[C@@]21C (stereo not given in full)	i	0.1
Cc1nc(CNC(=O)[C@H]2CCCN2S(=O)(=O)c2ccc3c(c2)oc(=O)n3C)cs1	i	0.02
Cn1nc(C(=O)NCCCN2CCCC2)c2c1-c1ccsc1CC2	i	-1.73
COc1ccc(NC(=O)C2CCN(S(=O)(=O)c3cc4c(cc3C)NC(=O)CO4)CC2)cc1	i	1.14
CCCn1c(=O)c2sccc2n2c(SCc3cccc(Br)c3)nnc12	i	-0.07
CCOCCCNC(=O)c1sc(N2CCOCC2)nc1COCC	i	0.89
Cc1ccccc1CNS(=O)(=O)c1c(C)sc(C)c1-c1n[nH]c(C)c1C	i	-0.72
O=C(CCn1c(=O)sc2cc(S(=O)(=O)N3CCN(c4ccccn4)CC3)ccc21)N1CCCC1	i	0.42
O=C(NC1CCCC1)N1CCN(Cc2nc3cccnc3n2-c2cccc(F)c2)CC1	i	-0.33
COc1ccccc1C(=O)Nc1ccc2nc(N3CCC(N4CCCCC4)CC3)cc(C(=O)O)c2c1	i	0.14
CCOC(=O)c1c(NC(=O)CSc2nnc(-c3ccncc3)n2CC)sc2c1CCCC2	i	0.39
CC(=O)C1CCC2C3CCC4=CC(=O)CC[C@]4(C)C3CC[C@]12C (stereo not given in full)	i	-1
CCOC(=O)C1CCN(c2nnc(N3CCOCC3)c3ccccc23)CC1	i	-0.03
Cc1ccc(C(=O)COc2cc(O)c3c(=O)cc(-c4ccccc4)oc3c2)cc1	i	0.99
O=S(=O)(c1ccc(F)cc1)N1CCC(c2noc(-c3ccc(F)cc3)n2)CC1	i	0.34
O=C1CN(Cc2ccc(F)cc2)S(=O)(=O)c2ccccc2N1Cc1ccccc1F	i	-0.31
CN(C)c1cc(OC2CCN(S(=O)(=O)c3cn(C)cn3)C2)ncn1 (stereo not given)	i	0.75

Laid out differently: results already given.
structure,Anaer choline gr,Anaer choline gr early
O=C(CC1CCN(C(=O)c2cn(-c3ccccc3)nc2-c2ccccc2)CC1)N1CCCCC1,i,0.28
COc1ccc(-c2nc3nc(CN4CCCC4)cc(=O)n3[nH]2)cc1,i,-0.31
CC(=O)[C@@]1(O)CCC2C3CCC4=CC(=O)CC[C@]4(C)C3CC[C@@]21C (stereo not given in full),i,0.1
Cc1nc(CNC(=O)[C@H]2CCCN2S(=O)(=O)c2ccc3c(c2)oc(=O)n3C)cs1,i,0.02
Cn1nc(C(=O)NCCCN2CCCC2)c2c1-c1ccsc1CC2,i,-1.73

Ordered by molar mass (lowest first): part of the list above
SMILES	Anaer choline gr	Anaer choline gr early
CC(=O)C1CCC2C3CCC4=CC(=O)CC[C@]4(C)C3CC[C@]12C (stereo not given in full)	i	-1
COc1ccc(-c2nc3nc(CN4CCCC4)cc(=O)n3[nH]2)cc1	i	-0.31
C[C@]12CCC(=O)C=C1CC[C@@H]1[C@@H]2C(=O)C[C@@]2(C)[C@H]1CC[C@]2(O)C(=O)CO	i	-0.02&-0.37
O=C(NC1CCCC1)N1CCN(Cc2nc3cccnc3n2-c2cccc(F)c2)CC1	i	-0.33
Cc1nc(CNC(=O)[C@H]2CCCN2S(=O)(=O)c2ccc3c(c2)oc(=O)n3C)cs1	i	0.02
CCOC(=O)c1c(NC(=O)CSc2nnc(-c3ccncc3)n2CC)sc2c1CCCC2	i	0.39
COc1ccccc1C(=O)Nc1ccc2nc(N3CCC(N4CCCCC4)CC3)cc(C(=O)O)c2c1	i	0.14

Remaining list, next part
SMILES	Anaer choline gr	Anaer choline gr early
CCN(Cc1ccccc1)c1ccc(NS(=O)(=O)c2c(C)cc(C)cc2C)cc1C(=O)O	i	-0.1
CCNc1cc(C)nc(Nc2ccc(NS(=O)(=O)c3ccc(OCC)cc3)cc2)n1	i	-4.69
Cc1ccc(-c2noc(-c3c(C)cc(C)n(CC(=O)Nc4ccc(Oc5ccccc5)cc4)c3=O)n2)cc1	i	1.16
CN(CC(=O)Nc1ccc(S(N)(=O)=O)cc1)C(=O)c1ccc2c(c1)nnn2C	i	0.24
C=CCn1c(SCC(=O)N2CCC(C)CC2)nc2sc3c(c2c1=O)CCCC3	i	-0.13
CC(C)c1cc(C2CCCN2C(=O)Cn2nc(C(F)(F)F)c3c2CCCC3)on1 (stereo not given)	i	0.04
O=C(NC1CCCCC1)c1ccc2c(=O)nc3c(-c4ccccc4)n[nH]n3c2c1	i	-0.26
O=C(NC1CCCCC1)N1CCCN(c2nc3cc(Br)ccc3n3cccc23)CC1	i	-1.78
CC(=O)Nc1ccc(NC(=O)C2CCCN(S(=O)(=O)c3cn(C(C)C)cn3)C2)cc1 (stereo not given)	i	0.21
CN1C(=O)COc2ccc(-c3csc(NC(=O)COc4ccc(Cl)cc4)n3)cc21	i	0.57
Cc1cccn2c(=O)cc(COc3cccc(NC(=O)Nc4ccccc4Cl)c3)nc12	i	0.03
Cc1cc(N2CCn3c(nc4ccccc43)C2)ccc1N	i	0.07
COc1ccc2c(c1)C(O)(c1c(C)[nH]c3ccccc13)C(=O)N2 (stereo not given)	i	-3.2
COc1ccc(-c2nc3sccn3c2Nc2c(C)cccc2C)cc1	i	0.51
Cc1cc(C)nc(-n2[nH]c3nccc(-c4ccc(Cl)cc4)c3c2=O)n1	i	0.21
O=C(NCCCn1c(-c2ccncc2)nc2cccnc21)Nc1ccc(Cl)cc1	i	-2.65
Clc1cccc(CSc2nc3ccccc3n3nnnc23)c1	i	0.09
COCCn1nnc2cc(S(=O)(=O)N3CCCCC3C(=O)NCCC3=CCCCC3)ccc21 (stereo not given)	i	-0.06
COc1cc(OC)c(NC(=O)c2cnc(N(C)C)nc2C)cc1Cl	i	0.31
NC(=O)NO	i	1.24

Another view of 2 compounds above.
SMILES,Anaer choline gr,Anaer choline gr early
Cc1cc(OC(C)C(=O)Nc2ccc3c(c2)NC(=O)CO3)ccc1Cl (stereo not given),i,0.54
Cn1c(O)c(-c2cc(-c3ccc(O)cc3)n3ncnc3n2)c(=O)n(C)c1=O,i,0.28

Following part:
SMILES	Anaer choline gr	Anaer choline gr early
O=C(Nc1ccc(-n2cnnn2)cc1)C1=Cc2ccccc2OC=C1	i	0.47
CC1CNc2c(cccc2S(=O)(=O)N[C@@H](CCCN=C(N)N)C(=O)N2CCC(C)CC2C(=O)O)C1 (stereo not given in full)	i	0.35
Cc1ccc(N(C)S(=O)(=O)c2ccc3c(c2)NC(=O)CC(=O)N3)cc1C	i	-0.08
COc1cccc(-c2cc(C(F)(F)F)n3nc(C(=O)N4CCCC4c4cc(C)no4)cc3n2)c1 (stereo not given)	i	0.86
CCCn1cnc2nc(CSc3ccccc3NC(=O)Nc3ccc(C)c(C)c3)cc(=O)n21	i	-0.32
COc1ccc(-c2nc3n(c2C(=O)N2CCCC2)CCS3(=O)=O)cc1	i	0.04
O=c1ccc(-c2ccc3c(c2)OCO3)nn1CCc1nc(-c2ccc(Cl)c(F)c2)no1	i	0.09
CC1=C(c2ccc(C)c(C)c2)S(=O)(=O)N(CC(=O)O)C1=O	i	0.17
COc1ccccc1N1CCN(c2cc(C)nc(-n3nc(C)cc3C)n2)CC1	i	-2.06
Cc1cccc(CN2CCC(CNC(=O)c3cc4c(C)nc5ccccc5c4o3)CC2)c1	i	-0.63
CC(C)OC(=O)CSc1nc2nc[nH]c2c(=O)[nH]1	i	-0.13
C[C@]12CC[C@@H]3c4ccc(O)cc4CC[C@H]3[C@@H]1CC[C@@H]2O	i	0.53&0.26&0.38&0.45
O=c1cc(CSc2nnc(-c3cccc(Cl)c3)o2)nc2sccn12	i	3.29
COc1ccc2c(c1)NC1(CCN(C(=O)Nc3cc(Cl)ccc3OC)CC1)c1cccn1-2	i	0.08
CC(C)(C)C(=O)N1CCC2(C1)C(=O)Nc1ccccc12 (stereo not given)	i	0.02
O=S(=O)(NC1CCCC1)c1cc(-c2nnc(C3CC3)o2)cs1	i	0.44
O=C(NC1CCCC1)N1CCN(c2nc3cc(Br)ccc3n3cccc23)CC1	i	0.47
CCOc1ccc(CNCCSc2nnnn2C)cc1Cl	i	0.22
O=C(c1ccccc1F)N1CCN(Cc2noc(-c3ccccc3)n2)CC1	i	-0.04
COc1ccc(C(=O)CSc2nnc3sc4ccccc4n23)cc1OC	i	1.29
CCCNC(=O)N1CCC(N2CCN(Cc3ccc(C)cc3)C(=O)C2=O)CC1	i	-0.73
CC(=O)Nc1cccc(-n2cnnc2)c1	i	0.04
O=C(CCc1ccccc1)NCCc1csc(-c2ccc(F)cc2)n1	i	0.2
COc1ccc(CNC(=O)C2CCCN(C(=O)c3[nH]c(C)cc3C)C2)cc1 (stereo not given)	i	-1.02
O=C1c2c(O)cccc2[C@@H](O[C@@H]2O[C@H](CO)[C@H](O)[C@@H](O)[C@H]2O)c2cc(CO)cc(O)c21	i	0.36
CCCCC(=O)Nc1ccc(N2CCC(C(N)=O)(N3CCCCC3)CC2)c(C(=O)O)c1	i	0.65
COC(=O)c1ccc(C2C(S(=O)(=O)c3ccccc3)=C(O)C(=O)N2c2cccc(C)c2)cc1 (stereo not given)	i	-0.33
Cc1cccc(C)c1NC(=O)Cn1cc(S(=O)(=O)Cc2ccccc2F)c2ccccc21	i	0.09
O=C(NC1CCCc2ccccc21)c1cccc(-c2cc(N3CCCC3)ncn2)c1 (stereo not given)	i	-0.43
COc1c2ccoc2nc2c(OC)cccc12	i	-0.43
CCCc1noc(Cn2cnc3c4ccccc4n(CC(N)=O)c3c2=O)n1	i	0.75
